# ALR inh: human ALR oxidase inhibition via reduced H2O2. AID 485317. inhibition, % (concentration not given with the values). purified ALR, DTT oxidation, H2O2 HRP-luminol luminescence. actives 3.8% (n = 290,000);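 active = mean and each replicate at 75% or more; inconclusive = only one of the two met; inactive = neither met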;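 also: stock transfer was 7.5 nL into about 7.5 µL; 0% = neutral wells and 100% = wells with inactivated enzyme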
# HNF4A DNA FP: change in binding of human HNF4 alpha to DNA; P41235; activity change, % at 10 µM; actives 0.3% (n = 360,000); HNF4a-FITC DNA binding, fluorescence polarization, 1 h; in the data active = activity change above about 30%, passing the limit was not always enough;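 also: controls were the assay level and a saturating level of protein; the project sought stronger binding though the title names inhibitors; some compounds called inactive have numbers as strong as hits; positive values seem to mean higher polarization but the record does not say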
# Beta2AR agonist: activates human beta-2 adrenergic receptor causing internalization | actives 0.43% (n = 340,000) | P07550 | response, % (test concentration not listed) | Am2.2-beta2AR cells, FAP receptor internalization, flow cytometry; reference of the scale not given here | AID 504454;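 active = response above a set limit, near 3 SD of response in nonfluorescent compounds, cut at about 42% in these data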;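 also: stock transfer was 100 nL into about 11 µL; a reference agonist was the positive control; negative values mostly stem from fluorescent compounds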
# Target sequence (P07550 whole entry, looked up): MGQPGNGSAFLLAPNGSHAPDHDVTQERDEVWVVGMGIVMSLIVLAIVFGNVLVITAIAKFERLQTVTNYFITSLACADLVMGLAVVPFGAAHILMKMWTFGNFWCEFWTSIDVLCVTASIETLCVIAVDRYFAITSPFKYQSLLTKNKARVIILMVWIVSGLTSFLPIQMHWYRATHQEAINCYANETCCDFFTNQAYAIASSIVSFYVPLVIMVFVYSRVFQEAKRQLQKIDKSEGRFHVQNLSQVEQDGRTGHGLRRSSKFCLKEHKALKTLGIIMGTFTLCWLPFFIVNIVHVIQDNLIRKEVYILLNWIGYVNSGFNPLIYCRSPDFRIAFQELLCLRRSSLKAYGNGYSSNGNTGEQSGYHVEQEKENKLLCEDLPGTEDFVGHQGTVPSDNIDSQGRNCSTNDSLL
# Ecoli rRNA inh: inhibits bacterial ribosomal RNA function over humanized ribosomes | E. coli WT GFP vs humanized-ribosome RFP mutants, fluorescence, 24 h; hits give low values; DMSO median 0, no signal -100 | actives 1.6% (n = 350,000) | AID 720706 | GFP signal change (wild-type ribosome), % (no concentration beside the values);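 active = significant combined selectivity score with lowered wild-type GFP, culture density cut under 30%, mutant RFP and density less affected; inactive = any of these conditions unmet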; also: one replicate is shown; some compounds called inactive have numbers as strong as hits
# E coli growth: E. coli growth inhibition; AID 1053175; actives 0.21% (n = 330,000); Escherichia coli growth, OD600, 23 h; hits give low values; OD600 absorbance (test concentration not listed);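 active = OD600 absorbance below the run mean of sample wells minus 3.6 SD, in any replicate, cut at about 0.56 in these data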;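 also: stock transfer was 300 nL into about 60 µL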
# FGF22 binding: FGF22 (human) thermal shift binding; Q9HCT0; recombinant FGF22 thermal shift, SYPRO orange fluorescence; percent of sucrose octasulfate shift, DMSO zero; calls only at 9.99 µM; actives 1.5% (n = 340,000); AID 651658;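 active = melting point raised past a set limit in the mean and every replicate; inconclusive = no clear call; three in four hits are not shown here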
# Target sequence (Q9HCT0 whole entry, looked up): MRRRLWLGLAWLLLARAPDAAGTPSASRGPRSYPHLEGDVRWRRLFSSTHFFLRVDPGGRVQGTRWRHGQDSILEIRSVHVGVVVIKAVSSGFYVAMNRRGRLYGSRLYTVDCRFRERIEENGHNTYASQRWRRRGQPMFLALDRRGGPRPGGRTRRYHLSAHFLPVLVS
# UCH37 DUB inh: inhibitors of human deubiquitinating enzyme UCH37; purified proteasome/UCH37, Ub-AMC cleavage fluorescence; inhibition, % (concentration not given with the values); actives 0.33% (n = 330,000); AID 588478;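 active = mean of two replicates above 20%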;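 also: 0% = compound-free wells with enzyme and 100% = wells lacking proteasome; stock transfer was 100 nL into about 20 µL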
# Target sequence (Q9Y5K5 whole entry, looked up): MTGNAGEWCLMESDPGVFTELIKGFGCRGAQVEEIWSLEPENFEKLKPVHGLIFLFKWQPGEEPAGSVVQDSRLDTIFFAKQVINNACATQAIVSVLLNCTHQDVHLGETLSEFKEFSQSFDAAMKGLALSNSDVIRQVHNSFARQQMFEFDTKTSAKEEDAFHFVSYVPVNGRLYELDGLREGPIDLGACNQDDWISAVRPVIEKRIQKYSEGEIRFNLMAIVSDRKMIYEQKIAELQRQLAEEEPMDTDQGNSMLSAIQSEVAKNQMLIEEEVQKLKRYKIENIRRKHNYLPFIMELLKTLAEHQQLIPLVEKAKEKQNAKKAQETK
#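 Assay system: Proteasome-bound UCH37. Buffer or medium: pH 7.4 Tris-HCl (50 mM) with ovalbumin, ATP-MgCl2, DTT. Incubation: 30 min preincubation with enzyme, 25 min cleavage at room temperature. Measured by: fluorescence, ex 355 nm, em 460 nm. Read-out basis: percent inhibition. Control set: wells without proteasome as full block, compound-free enzyme plus substrate as uninhibited.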
# Ecoli rRNA inh OD600: further read-out of Ecoli rRNA inh, marked with its call; OD600 change, %; measured here: OD600 growth;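 optical density of the mix in the first replicate; 0 = DMSO median and -100 = no signal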
# Ecoli rRNA inh RFP: also measured in Ecoli rRNA inh; calls as there; RFP signal change, %; measured here: RFP humanized mutant strains;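 first replicate; 0 = DMSO median and -100 = no signal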
# * hit, by the source's call; i = inactive; ? = inconclusive; / = no result given.
SMILES,ALR inh,HNF4A DNA FP,Beta2AR agonist,Ecoli rRNA inh,Ecoli rRNA inh OD600,Ecoli rRNA inh RFP,E coli growth,FGF22 binding,UCH37 DUB inh
CCN(CC)C(=O)Cn1cc(C(=O)C(=O)N2CCN(c3ccc(OC)cc3)CC2)c2ccccc21,24.8,-1.8,1.9,-3.9,-8.1,1.7,0.709,i,7.5
CC(C)(C)NC(=O)NC(=O)CN1CCCc2ccccc21,96.2*,-19.2,-15.4,13.3,4.1,2.1,0.69,i,10.3
O=C(c1[nH]ncc1-c1ccccc1)C1CO1 (stereo not drawn),-11.2,1.6,-2.8,-14.1,1.1,18.7,0.628,i,-9.9
CCc1ccc(S(=O)(=O)Nc2ccc(C)c(NS(C)(=O)=O)c2)cc1,/,-2.0,8.4,8.6,9.6,1.3,0.654,i,5.8
O=[N+]([O-])c1ccccc1CNCCCCO,9.5,-3.0,-12.4,2.4,3.0,-4.8,0.651,i,2.6
Cc1ccc(NC(=O)N[C@@H](CC(C)C)C(=O)O)c(C)c1,-4.2,1.4,1.3,7.2,-5.7,2.3,0.715,i,0.5
C=C(C)Cn1c(N2CCN(c3ccc(OC)cc3)CC2)nc2c1c(=O)n(C)c(=O)n2C,/,0.8,1.1,-9.3,-7.8,2.9,0.706,/,1.2
CCOc1cc(/C=N\NC(=O)c2ccc(NC(=O)C(C)(C)C)cc2)ccc1OC(=O)c1ccc(OC)cc1,-7.0,7.1,14.0,/,/,/,/,/,/
CC1CCN(c2c([N+](=O)[O-])c(=O)oc3ccccc23)CC1,67.2,-6.8,4.5,/,/,/,0.696,/,0.9
O=C(c1cc(-c2ccc3c(c2)OCO3)on1)N1CCOCC1,0.2,2.0,0.5,/,/,/,0.685,/,-0.1
CC(=O)Nc1cccc(C(=O)/C=C/c2ccc[nH]2)c1,3.3,19.0,-3.7,7.1,7.5,6.7,0.601,i,9.2
CC[C@]12c3[nH]c4ccc(Cl)cc4c3CCN1C(=O)[C@@H](CC(=O)NCCN1CCOCC1)C[C@@H]2C(=O)N1CCN(C(=O)c2ccco2)CC1,/,-1.5,-10.0,5.6,6.1,6.4,0.711,i,0.2
COc1ccc(C2/C(=C(/O)c3ccc(F)cc3)C(=O)C(=O)N2CCCN2CCOCC2)cc1OC (stereo not drawn),-1.0,0.2,-0.9,/,/,/,0.722,/,7.5
CCCCCOc1ccc(C(=O)NCCC(=O)NCCCC(=O)OCC)cc1,-6.7,-2.5,-0.5,-25.1*,-16.6*,-0.8*,0.617,i,3.8
COc1cc(C2C(C#N)=C(N)N(c3cccnc3)C3=C2C(=O)CCC3)ccc1O (stereo not drawn),?,6.3,0.2,-6.4,-1.9,9.7,0.673,i,8.2

# 11 of the compounds above, with bars between the fields.
SMILES | ALR inh | HNF4A DNA FP | Beta2AR agonist | Ecoli rRNA inh | Ecoli rRNA inh OD600 | Ecoli rRNA inh RFP | E coli growth | FGF22 binding | UCH37 DUB inh
O=[N+]([O-])c1ccccc1CNCCCCO | 9.5 | -3.0 | -12.4 | 2.4 | 3.0 | -4.8 | 0.651 | i | 2.6
Cc1ccc(NC(=O)N[C@@H](CC(C)C)C(=O)O)c(C)c1 | -4.2 | 1.4 | 1.3 | 7.2 | -5.7 | 2.3 | 0.715 | i | 0.5
C=C(C)Cn1c(N2CCN(c3ccc(OC)cc3)CC2)nc2c1c(=O)n(C)c(=O)n2C | / | 0.8 | 1.1 | -9.3 | -7.8 | 2.9 | 0.706 | / | 1.2
CCOc1cc(/C=N\NC(=O)c2ccc(NC(=O)C(C)(C)C)cc2)ccc1OC(=O)c1ccc(OC)cc1 | -7.0 | 7.1 | 14.0 | / | / | / | / | / | /
CC1CCN(c2c([N+](=O)[O-])c(=O)oc3ccccc23)CC1 | 67.2 | -6.8 | 4.5 | / | / | / | 0.696 | / | 0.9
O=C(c1cc(-c2ccc3c(c2)OCO3)on1)N1CCOCC1 | 0.2 | 2.0 | 0.5 | / | / | / | 0.685 | / | -0.1
CC(=O)Nc1cccc(C(=O)/C=C/c2ccc[nH]2)c1 | 3.3 | 19.0 | -3.7 | 7.1 | 7.5 | 6.7 | 0.601 | i | 9.2
CC[C@]12c3[nH]c4ccc(Cl)cc4c3CCN1C(=O)[C@@H](CC(=O)NCCN1CCOCC1)C[C@@H]2C(=O)N1CCN(C(=O)c2ccco2)CC1 | / | -1.5 | -10.0 | 5.6 | 6.1 | 6.4 | 0.711 | i | 0.2
COc1ccc(C2/C(=C(/O)c3ccc(F)cc3)C(=O)C(=O)N2CCCN2CCOCC2)cc1OC (stereo not drawn) | -1.0 | 0.2 | -0.9 | / | / | / | 0.722 | / | 7.5
CCCCCOc1ccc(C(=O)NCCC(=O)NCCCC(=O)OCC)cc1 | -6.7 | -2.5 | -0.5 | -25.1* | -16.6* | -0.8* | 0.617 | i | 3.8
COc1cc(C2C(C#N)=C(N)N(c3cccnc3)C3=C2C(=O)CCC3)ccc1O (stereo not drawn) | ? | 6.3 | 0.2 | -6.4 | -1.9 | 9.7 | 0.673 | i | 8.2

# The list continues.
SMILES,ALR inh,HNF4A DNA FP,Beta2AR agonist,Ecoli rRNA inh,Ecoli rRNA inh OD600,Ecoli rRNA inh RFP,E coli growth,FGF22 binding,UCH37 DUB inh
CN1CC(C(=O)Nc2ccc(F)c(Cl)c2)CC1=O (stereo not drawn),-11.0,-3.1,-0.1,3.3,-9.8,17.5,0.67,i,5.7
Cc1ccc(C(=O)NCc2cccnc2)o1,4.9,-0.1,-0.8,10.4,15.2,-0.1,0.692,i,-0.3
CCN(C[C@H]1N[C@@](C)(C(=O)OC)[C@H]2C(=O)N(Cc3ccccc3)C(=O)[C@@H]12)C(=O)COC,/,0.6,5.0,6.3,4.8,-2.9,0.701,i,-0.3
Cc1ccc(N2CC(C(=O)NC3CC3)CC2=O)cc1 (stereo not drawn),20.4,0.5,-0.5,23.6,9.9,0.0,0.727,i,4.4
O=C(CN1CCC(NC(=O)c2ccccc2F)CC1)NCc1ccc(F)cc1,-5.0,-6.3,2.3,/,/,/,0.722,/,5.2
CCN(CC(=O)NCc1cccs1)S(=O)(=O)c1ccc(F)cc1,-3.6,-1.2,-8.0,7.7,8.3,-0.4,0.702,i,-1.4
NC(=O)N=Nc1c2[nH]c3ccccc3nc-2c2ccccc12,2.4,-8.7,5.1,-15.2,-8.6,-3.1,/,i,/
COc1cccc(NC(=O)C2C3C=CC4(O3)C2C(=O)N(C(C)C)C4C(=O)NC2CCCCC2C)c1 (stereo not drawn),-1.7,4.9,-8.5,/,/,/,0.74,/,-2.0
c1cn(-c2ccc(-c3ccnc4ncnn34)cc2)cn1,-22.0,-0.9,-0.7,-52.7,-76.7,-17.8,0.598,i,0.9
CCC(Oc1ccccc1)C(=O)OCC(=O)Nc1sccc1C(N)=O (stereo not drawn),/,7.2,14.6,-8.8,-6.4,2.6,0.684,i,0.0
Cc1cc(C)nc(N(C#N)Cc2cccc(Cl)c2)n1,/,1.6,2.5,-37.6,-53.1,-2.4,0.655,i,1.3
O=C(N/N=C\c1ccc(Br)o1)C1COc2ccccc2O1 (stereo not drawn),28.5,-3.4,6.3,-0.1,0.4,-1.3,/,i,/
COCCNC(=O)c1n[nH]c2ccccc12,0.1,-1.3,-0.9,8.2,-7.0,0.4,0.695,i,3.7
Cc1cccc(OCCC(=O)Nc2ccc(C)c(S(=O)(=O)N3CCOCC3)c2)c1,3.5,-5.5,-0.9,-11.7,-9.1,7.8,/,i,/
COCc1cccc(-c2csc(C(N)c3ccc(F)c(F)c3)n2)c1 (stereo not drawn),/,-1.9,/,-7.3,-9.3,-1.8,/,i,/
Cc1cc(C)cc(-c2nnc(SCC(=O)NC3CC3)o2)c1,-0.1,4.3,-1.1,/,/,/,0.664,i,7.1
CC(C)OC(=O)CSc1nnc2n1C(C)(C)Cc1ccccc1-2,-5.5,-0.4,7.1,/,/,/,0.635,/,1.1
COc1ccccc1OCCCCN1CCCCC1,-7.1,-3.5,-2.4,27.1,22.5,2.5,0.639,i,0.2
Cc1ccc(C(=O)NNC(=O)Cc2cccs2)cc1,-11.0,6.3,-0.3,/,/,/,0.649,/,0.7
CC(=O)N1N=C2/C(=C/c3ccccc3)CCCC2C1c1ccccc1 (stereo not drawn),-34.4,1.0,-2.6,-27.1,-61.3,7.2,0.654,i,-21.6
N#C/C(=C\c1ccc(-c2ccc(C(=O)O)cc2)o1)C(=O)Nc1ccc(F)cc1,52.9,-0.9,21.3,-39.8,-70.2,-6.3,0.677,i,-76.4
O=C(NNC(=S)Nc1cccc(Cl)c1)c1ccccc1OC(F)F,/,-2.4,11.5,/,/,/,0.673,/,4.3
CC(=O)c1ccc(OCC(=O)Nc2nnc(C3CC3)s2)cc1,/,-0.4,/,4.7,20.2,-2.0,/,i,/
Cc1ccc(OCc2ccc(C(=O)N3CCCC3)o2)c([N+](=O)[O-])c1,-1.7,-2.3,-3.0,-19.2,-17.7,-1.3,0.62,i,5.1
Cc1ccc(S(=O)(=O)NC(=O)C2(C)CCN2C(=O)c2c(C)noc2C)cc1 (stereo not drawn),/,4.7,/,12.5,13.8,0.8,/,i,/
c1ccc2oc(-c3ccn[nH]3)cc2c1,-3.8,2.8,-2.7,-16.2,-2.9,1.4,0.702,i,3.7
O=C1OCCN1C(=O)[C@H]1[C@H](c2ccccc2)C(c2ccccc2)=NN1c1ccc(Br)cc1,/,5.3,5.9,28.4,12.5,1.9,0.733,i,-450.6
CCCCc1c(-c2ccc(Cl)cc2)ncn1CCc1ccccc1OC,/,3.6,/,-44.2,-63.8,5.1,/,i,/
CCOC(=O)c1c(NC(=O)CN2C(=O)c3ccccc3C2=O)sc(Cc2ccc3c(c2)OCO3)c1C,/,4.0,10.6,2.7,8.3,-4.8,0.692,i,2.6
O=C(CSc1cccs1)Nc1ccc2ccccc2c1,-10.9,1.5,-1.5,/,/,/,0.656,/,3.6
Nc1cc(=O)nc2cn[nH]n12,/,-5.4,/,6.3,12.8,-6.1,/,i,/
Cc1ccccc1CNS(=O)(=O)c1c(C(=O)N2CCCC2)c(C)n(C)c1C,-1.2,-0.7,/,1.2,-3.0,-2.2,0.671,i,-1.3
CCOC(=O)COn1c(=O)c(-c2ccc(OCC)cc2)[n+]([O-])c2ccccc21,-5.0,0.1,-8.3,-1.9,-0.7,-1.8,0.605,i,3.3
O=C(c1cccc(F)c1F)N1CCCC1,-5.9,2.6,-6.7,/,/,/,0.697,/,0.9
O=C(NNS(=O)(=O)c1ccc([N+](=O)[O-])cc1)C(=O)Nc1cccc(C(=O)O)c1,-10.6,0.9,4.6,7.0,6.1,1.2,/,i,/
Cc1ccc(-c2nnc3c4ccccc4c(C)nn23)cc1S(=O)(=O)N1CCN(C)CC1,/,1.0,-12.2,/,/,/,0.695,/,4.2
O=C(c1ccccc1)N1CCCOC1c1ccccc1 (stereo not drawn),/,-1.0,-7.5,/,/,/,0.706,/,2.6
COc1cc(C(=O)NC(=S)Nc2ccc3c(c2)C(=O)N(C)C3=O)cc(OC)c1OC,4.3,5.1,19.0,-11.4,1.2,-6.2,0.69,i,2.6
CSc1nc(C)c(C(=O)C[n+]2ccc(C)cc2)cc1C#N,-26.9,-0.3,2.7,19.2,14.1,3.1,0.714,i,4.0
CCCn1nc(NC(=O)C2CCCO2)c2cc3cc(C)ccc3nc21 (stereo not drawn),23.9,-3.6,-6.6,/,/,/,0.679,/,-64.4

# Screening data from PubChem BioAssay.

# These rows are one share of the data; the hit share may differ from the screen's.
